Compound activity as filed in PubChem BioAssay.
BJeLR lethal – kills HRASV12-expressing BJeLR cells. BJeLR (HRASV12) viability, CellTiter-Glo ATP luminescence, 48 h; reference of the scale not given here. inhibition, % (concentration not given with the values). 0.17% of 300,000 active. AID 1554;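 active = replicate mean above 50%; inconclusive = above 50% but judged a plate artefact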;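 note: 50 nL library stock added to about 25 µL; numbers are from one replicate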
Mtb hypoxia inh – reduces hypoxia-regulated biosensor signal in M. tuberculosis. M. tuberculosis hypoxia-regulated fluorescent reporter, fluorescence. fluorescence inhibition, % (concentration not given with the values). 0.1% of 300,000 active. AID 1159583;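 active = 35 to 45% if threefold the growth effect, above 45% if 1.5-fold the growth effect; inactive = the rest, general growth blockers included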;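 note: wells of about 50 µL received 100 nL stock; 0% = vehicle wells and 100% = reference inhibitor wells; whole bacteria with a GFP reporter of the hypoxia response; strong numbers were not always called active; many hits fall short of the cut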
Bead autofluor – flagged as autofluorescent in microsphere protease counterscreen; 3.1% of 360,000 active; AID 624483; fluorescence intensity (concentration not given with the values); compound autofluorescence counterscreen, microsphere flow cytometry; active compounds read high;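 active = at least 3 SD above the mean of all compounds, about 16000 in these data; inconclusive = too few beads counted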;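 note: 100 nL of 1 mM stock went into each well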
RN4220 kill – S. aureus RN4220 growth inhibition; OD600, 16 h; inhibition, % (test concentration not listed); 0.33% of 330,000 active; AID 1259311;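 active = z-score of -3 or lower and OD600 up to 0.18 on both plates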;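 note: plate controls were untreated cells for no effect and reference antibiotic for full effect; stock transfer was 100 nL into about 80 µL; one replicate is shown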
Sa ugtP lethal – compounds lethal to S. aureus RN4220 ugtP deletion mutant. OD600 growth, 16 h; some inactives read as strong as hits. growth inhibition, % (test concentration not listed). 0.54% of 330,000 active;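 active = z-score under -3 and OD600 up to 0.15 on both plates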;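 note: plate controls were untreated wells for no effect and antibiotic for full effect; wells of about 80 µL received 100 nL stock; the first replicate is given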
PrP UTR inh – suppresses PrP 5' UTR mRNA reporter expression; cell-based PrP 5' UTR mRNA reporter, plate reader; inhibition, % (concentration not given with the values); 0.35% of 340,000 active;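 active = every replicate at 50% or more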;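 note: 0 = median of the neutral control wells; tested in H4 reporter cells; numbers are from one replicate; inactives centre near -14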
Mtb hypoxia inh growth – also measured in Mtb hypoxia inh; calls as there; growth inhibition, %; measured here: M. tuberculosis growth (absorbance);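 0% = vehicle and 100% = reference antibiotic; read after six days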
An asterisk follows results filed as active; ? = inconclusive; . = no result given; & = joins results of further samples.

SMILES	BJeLR lethal	Mtb hypoxia inh	Mtb hypoxia inh growth	Bead autofluor	RN4220 kill	Sa ugtP lethal	PrP UTR inh
CC1=CC(C)(C)NC(=S)N1c1ccc2ccccc2c1	7	17&8	11&5	3863&7051	-0.9&3.7	1&11	-4&-10
CCCOc1ccc(CSC(CC(=O)O)C(=O)O)cc1 (centres undefined)	-3	.	.	3777	-1.9	6	-27
O=C(Cc1ccc(NC2=NC3CS(=O)(=O)CC3S2)cc1)NCCc1ccccc1 (centres undefined)	-3	5	1	6390	6.6	5	-16
CC1([N+](=O)[O-])COC2(CCCCC2)OC1	.	-3	-3	3729	-3.3	-4	-14
CN1C(=O)C(=NOC(=O)c2cccc3ccccc23)c2ccccc21	.	-3	-3	.	8.7	1	.
CC(C)c1ccc(NC(=O)Cn2ncn3c(cc4ccccc43)c2=O)cc1	-9	6	12	5243	-0.6	9	-33
O=S(=O)(c1ccc2ccccc2c1)N1CCN=C1SCc1cccnc1	1	-1	5	2206	2.8	8	-15
O=C1C2C3C=CC(C3)C2C(=O)N1CCN1CCN(Cc2ccc([N+](=O)[O-])cc2)CC1 (centres undefined)	6	-4	-8	2132	2.5	17	-15
COc1ccccc1N=c1oc2c(OC)cccc2cc1C(=O)NCc1ccco1	5	3	13	20264*	4.2	-20	-21
CC(C)(C)NC(=O)C(=O)NC(=O)c1c(F)cccc1Cl	9	9	13	4342	4.0	2	2

Single entries from above:
PrP UTR inh with CC1([N+](=O)[O-])COC2(CCCCC2)OC1 reads -14
Bead autofluor with CC1=CC(C)(C)NC(=S)N1c1ccc2ccccc2c1 reads 3863&7051
Bead autofluor with CCCOc1ccc(CSC(CC(=O)O)C(=O)O)cc1 (centres undefined) reads 3777
RN4220 kill with CN1C(=O)C(=NOC(=O)c2cccc3ccccc23)c2ccccc21 reads 8.7

(further entries)
SMILES	BJeLR lethal	Mtb hypoxia inh	Mtb hypoxia inh growth	Bead autofluor	RN4220 kill	Sa ugtP lethal	PrP UTR inh
COc1ccc(-c2cc(C)no2)cc1S(=O)(=O)N1CCN(c2cccc(C)c2)C(C)C1 (centres undefined)	3	-9	6	6119	0.5	-3	-2
CC(NC(=S)NC1CCCCC1)c1ccccc1 (centres undefined)	0	0	-6	4160	2.0	5	6
C/C=C(/C)C(=O)Nc1cccc(C2=NOC3(C2)C[C@@H](C(N)=O)N(C(=O)c2ccc(OC)cc2)C3)c1 (some centres undefined)	-17	.	.	4284	.	.	-18
O=C(O)CCNS(=O)(=O)c1ccccc1Br	.	0	-10	4464	1.7	8	-17
N/C(Cc1cccs1)=N\OC(=O)COc1ccccc1Cl	-10	.	.	2370	1.0	5	-31
CC(OC(=O)c1cccn1C)C(=O)Nc1ccc2c(c1)OCO2 (centres undefined)	-18	2	2	3946	2.3	4	2
Cc1ccc(-c2nc(CS(=O)CC(=O)NCCN(CC(C)C)CC(C)C)c(C)o2)cc1 (centres undefined)	2	15	13	8045	1.8	-6	-27
Cc1cc(C)n(-c2nc(N(c3ccccc3)c3ccccc3)nc(-n3nc(C)cc3C)n2)n1	-4	.	.	17611*	19	-23	4
Cc1cc(F)ccc1S(=O)(=O)Nc1ccccc1C(=O)N1CCCC1	.	3	7	4578	6.0	0	-3
Cc1nc2ccccc2c(=O)n1N=Cc1ccccc1OC(F)F	.	10	9	.	7.4	-1	.

Next section, overlapping the part above by two compounds.
SMILES	BJeLR lethal	Mtb hypoxia inh	Mtb hypoxia inh growth	Bead autofluor	RN4220 kill	Sa ugtP lethal	PrP UTR inh
Cc1cc(F)ccc1S(=O)(=O)Nc1ccccc1C(=O)N1CCCC1	.	3	7	4578	6.0	0	-3
Cc1nc2ccccc2c(=O)n1N=Cc1ccccc1OC(F)F	.	10	9	.	7.4	-1	.
CCOc1ccccc1N(CC(=O)N1CCc2ccccc2C1)S(C)(=O)=O	-14	3	4	4008	1.0	6	-23
Cn1c(Cn2c(=O)sc3ccccc32)nnc1SCc1ccc(F)cc1	-3	.	.	6050	1.1	3	-20
CC(OCC(O)CN1CCCCC1CCO)c1ccc(Cl)cc1 (centres undefined)	-4	-2	4	3625	-1.5	10	-2
COc1ccc(CN(C)c2ncnc3sccc23)c(OC)c1OC	4	9	2	6195	2.7	1	-21
Cc1c(N=C2C(=O)Nc3ccccc32)c(=O)n(-c2ccccc2)n1C	-10	11	8	6109	0.4	10	-3
Cn1cc(Cl)c(/C(N)=N/OC(=O)c2ccccc2C(F)(F)F)n1	-3	5	-6	4134	4.2	9	-74
CC1=CC2=NC(=O)/C(=C\c3cccn3CCOc3cc(C)cc(C)c3)C(=N)N2O1	1	0	-4	8934	-0.3	-24	-35
Cc1cc2oc(=O)cc(CN3CCN(Cc4ccccc4)CC3)c2cc1C	21	-1	5	3091	3.6	13	-17
NC(=O)CC(NC(=O)Cc1ccc(Br)cc1)c1ccc(NC2CCCCCCC2)c([N+](=O)[O-])c1 (centres undefined)	.	11	-8	3995	-15	5	-12
O=C(Nc1ccccc1)C1=CC(c2csc3ccccc23)CC(OCc2ccc(CO)cc2)O1 (centres undefined)	.	9	4	.	-4.2	1	.

Full records as entered above. Order of values: BJeLR lethal	Mtb hypoxia inh	Mtb hypoxia inh growth	Bead autofluor	RN4220 kill	Sa ugtP lethal	PrP UTR inh
NC(=O)CC(NC(=O)Cc1ccc(Br)cc1)c1ccc(NC2CCCCCCC2)c([N+](=O)[O-])c1 (centres undefined) is listed with .	11	-8	3995	-15	5	-12
CN1C(=O)C(=NOC(=O)c2cccc3ccccc23)c2ccccc21 is listed with .	-3	-3	.	8.7	1	.
CC(NC(=S)NC1CCCCC1)c1ccccc1 (centres undefined) is listed with 0	0	-6	4160	2.0	5	6
CCOc1ccccc1N(CC(=O)N1CCc2ccccc2C1)S(C)(=O)=O is listed with -14	3	4	4008	1.0	6	-23
Cc1ccc(-c2nc(CS(=O)CC(=O)NCCN(CC(C)C)CC(C)C)c(C)o2)cc1 (centres undefined) is listed with 2	15	13	8045	1.8	-6	-27

Further results
SMILES	BJeLR lethal	Mtb hypoxia inh	Mtb hypoxia inh growth	Bead autofluor	RN4220 kill	Sa ugtP lethal	PrP UTR inh
COCCNS(=O)(=O)c1ccc2c3c(cccc13)C(=O)N2C	1	0	9	4153	-0.3	-8	-24
CC(C)(O)P(C)(=O)c1ccccc1 (centres undefined)	7	5	8	3274	0.2	-1	-18
COC(=O)CC1C(=O)NCCN1C(=O)c1cc(OC)c(OC)cc1OC (centres undefined)	-8	9	0	3333	4.1	5	-14
O=C(NC(Cc1ccccc1)C(=O)NC(Cc1ccccc1)C(=O)O)OCc1ccccc1 (centres undefined)	.	5	7	.	3.5	4	.
Cc1nn(-c2ccccc2)c(=S)c2ccccc12	7	6	2	2265	1.9	4	-5
Cc1cccc(CC(=O)NCCN2CCOCC2)c1	19	1	2	3879	2.6	5	-5
COc1ccc(NC(=O)CSc2nnc(C3CCCCC3)o2)c(OC)c1	-12	-6	10	4206	0.5	-1	-6
CCOC(=O)c1[nH]c2ccc(OC)cc2c1NC(=S)N1CCN(c2ccccc2OC)CC1	6	12	1	2082	-1.2	2	-7
Fc1ccc(Cn2nnnc2CN2CCc3ccccc3C2)cc1	10	.	.	2944	-4.0	-7	-13
O=C(Nc1ccc(C(F)(F)F)cc1)c1cccn(Cc2ccc3c(c2)OC(F)(F)O3)c1=O	12	5	2	15928	-13	-14	-15
COc1cc(/C=C2\SC(=S)N(Nc3ccccc3)C2=O)cc(OC)c1OC	5	.	.	5025	-6.3	-15	-14
O=C(OCCSCCOC(=O)C1CC=CCC1)C1CC=CCC1 (centres undefined)	.	3	0	2747	6.4	12	7
CCCCCCSc1nsc(NC(=O)CCC)n1	13	-6	8	4218	-2.0	-18	-26
O=C(NCCCN1CCOCC1)C(=O)N/N=C/c1c2ccccc2cc2ccccc12	0	.	.	9252	.	.	-30
COC(=O)C1=C(C)NC(=O)/C1=C\c1cc(C)n(-c2ccccc2C)c1C	-4	.	.	3560	3.2	8	-23
COc1cc(NC(=O)c2ccc(C)cc2)c(OC)cc1NC(=O)CN1CCCCC1	-6	4	20	5049	3.4	1	-5
COc1ccc(N2CC(C(=O)OCC(=O)Nc3ccccc3C)CC2=O)cc1 (centres undefined)	0	-2	1	5764	1.6	0	-24
C[C@H](CO)N1C[C@H](C)[C@@H](CN(C)C(=O)NC2CCCCC2)Oc2c(NC(=O)Nc3ccccc3)cccc2C1=O	.	1	13	3998	-4.0	-3	-9
Cc1cc(C)n(CC(=O)NC2CCCc3c2cnn3-c2ccc(C)c(C)c2)n1 (centres undefined)	0	4	8	5943	-2.2	1	-19
CC(C)COc1cccc(C(=O)Nc2ccc(CN3CCOCC3)cc2)c1	0	10	10	3246	5.5	12	-1
COc1cc(C)c(N)cc1C(C)C	-16	11	10	8878	6.4	-5	-20
CN(C)c1cccc(C(=O)NNC(=O)C23CC4CC(CC(C4)C2)C3)c1	.	2	15	3849	-0.9	1	-23
C/C(=N\NC(=O)c1nonc1N)c1cccs1	12	.	.	?	.	.	-19
O=C(NCc1cccs1)C1CC(O)CN1C(=O)Nc1ccccc1 (centres undefined)	2	-13	-6	4361	6.6	4	-6
CCc1cccc(CC)c1NC(=O)Cn1c(-c2ccc(F)cc2)noc1=O	11	-6	-4	4342	4.3	-7	-12
CC(=O)c1ccc(Nc2cc(C)nc3ncnn23)cc1	-2	11	2	4220	3.4	6	-13
O=C(c1ccncc1)N1CCN(S(=O)(=O)c2ccc3ccccc3c2)CC1	5	-1	0	3568	3.3	5	-13
Cc1ccc(S(=O)(=O)N2CCN(C(=O)CSc3ccccn3)CC2)c(C)c1	4	-6	-4	6463	-2.9	0	-44
Cc1cccc(OCc2nnc(SCC(=O)Nc3sc(C)c(C)c3C#N)n2C)c1	1	1	-3	9394	3.4	3	-14
COc1ccc(CN(C(=O)c2oc3ccccc3c2C)C2CCS(=O)(=O)C2)cc1 (centres undefined)	-4	.	.	3706	9.4	2	-7
Cc1ccc(C)c(OCCC(=O)NCCc2ccc(Cl)cc2)c1	-9	13	-1	4603	0.7	-4	-11
CCCN1CCc2c(sc(NC(=O)Cc3ccc(F)cc3)c2C(N)=O)C1	-7	7	2	5253	4.2	6	-19
Cc1nc(C)c(-c2ccc(SCC(=O)Nc3cccc(Cl)c3)nn2)s1	7	-5	-7	4586	2.6	4	-19
Cc1ccc(CN2CCN(Cc3cccc4c3OCO4)CC2CCO)cc1 (centres undefined)	-2	4	3	4513	2.3	6	-20
C/C(=N\NC(=O)c1nn(C)cc1Br)c1ccncc1	2	.	.	2410	.	.	-11
COc1cc(S(=O)(=O)NC2CCCC2)ccc1Cl	6	.	.	2950	1.7	2	-23
CC1(C)CC(=O)C(CC(=O)N2CCC(Cc3ccccc3)CC2)C(=O)C1	5	17	7	3317	4.2	8	-9
CCOc1ccc(/C=N/Nc2ccccn2)cc1	13	.	.	2559	.	.	-44
Cc1ccnc(NC(=O)CCc2c(C)nc3ncnn3c2C)c1	-1	3	2	20457*	3.1	4	-7
NC(=O)c1ccc(/C(N)=N/S(=O)(=O)c2cc(C(F)(F)F)cc(C(F)(F)F)c2)cc1	2	4	1	4444	6.9	2	.

A stretch from further up, for reference:
SMILES	BJeLR lethal	Mtb hypoxia inh	Mtb hypoxia inh growth	Bead autofluor	RN4220 kill	Sa ugtP lethal	PrP UTR inh
CCOc1ccc(/C=N/Nc2ccccn2)cc1	13	.	.	2559	.	.	-44
Cc1ccnc(NC(=O)CCc2c(C)nc3ncnn3c2C)c1	-1	3	2	20457*	3.1	4	-7
NC(=O)c1ccc(/C(N)=N/S(=O)(=O)c2cc(C(F)(F)F)cc(C(F)(F)F)c2)cc1	2	4	1	4444	6.9	2	.

(further entries)
SMILES	BJeLR lethal	Mtb hypoxia inh	Mtb hypoxia inh growth	Bead autofluor	RN4220 kill	Sa ugtP lethal	PrP UTR inh
COc1cc2c(cc1NC(=O)C(c1ccccc1)c1ccccc1)CCCC2	2	.	.	2519	-12	40	-30
COc1ccc(OC(=O)N2CCOCC2)cc1	-4	2	-7	3534	5.0	14	-15
COc1ccc(Oc2ccc(C(F)(F)F)cc2NC(=O)c2ccc(C)cc2)cc1	4	0	-7	.	1.7	28	-3
CCOc1ccc(CCNC(=O)Cn2nc(C)n3cccc3c2=O)cc1OCC	0	-2	2	5263	3.7	8	-44
CC(=O)Oc1ccc2occ(C(=O)c3cccs3)c2c1	-7	4	-2	3721	8.7	2	-81
COC(=O)[C@@H](Cc1ccccc1)NC(=O)NCCc1ccc(OC)c(OC)c1	0	-4	13	3539	2.0	0	-13
COc1ccc(CCNC(=O)C2CCCN(c3nc4ccccc4s3)C2)cc1OC (centres undefined)	-4	7	0	3418	1.3	0	-17
